SARS PLpro yeast – qHTS of Yeast-based Assay for SARS-CoV PLP; S. cerevisiae expressing SARS-CoV PLpro, growth rescue; control for the full effect not named in the record; Potency, µM (series often up to 32.9 µM), without a hit: at the highest dose activity, positive = growth rescue; 330,000 tested, 0.19% active; note: 0% is about no effect; nearly all actives have a fitted effect of over 55% in size; growth read by luminescence after 48 h
Cruzain noTriton – qHTS Assay for Promiscuous and Specific Inhibitors of Cruzain (without detergent). Cruzipain (Trypanosoma cruzi), P25779. purified cruzain, Z-FR-AMC fluorescence, no detergent. Potency, µM, for the others: max response, negative = inhibition, most hits filed as inhibitors. 200,000 tested, 2.3% active; active = well fitted curve in the direction sought with a large enough effect; inconclusive = small, poorly fitted or top-dose-only effect, or another doubt; inactive = no such curve, though single readings can be large; an effect the other way counts as inactive or inconclusive;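 note: plate controls were enzyme without inhibitor for no effect and buffer without enzyme for full effect; nearly all actives have a fitted effect of over 40% in size; top concentration of the series not given in the record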
Target sequence (P25779 123-467 limits assumed): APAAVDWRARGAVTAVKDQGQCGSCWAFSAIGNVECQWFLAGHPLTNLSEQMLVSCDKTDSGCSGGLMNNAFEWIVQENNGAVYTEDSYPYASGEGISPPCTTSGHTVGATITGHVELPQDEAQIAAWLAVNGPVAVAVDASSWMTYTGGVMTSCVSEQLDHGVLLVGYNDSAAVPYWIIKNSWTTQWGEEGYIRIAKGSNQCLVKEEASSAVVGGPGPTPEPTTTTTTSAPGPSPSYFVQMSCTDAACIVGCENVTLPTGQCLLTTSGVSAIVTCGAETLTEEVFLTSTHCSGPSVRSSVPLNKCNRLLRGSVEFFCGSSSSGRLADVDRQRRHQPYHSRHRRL
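Detergent-free condition (0.00005% Triton X-100) in acetate buffer pH 5.5 with DTT. 1.5 nM enzyme and compound were pre-mixed 15 min, then 2 uM Z-FR-AMC substrate added; reaction progress from fluorescence change between first and third reads (60 s).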
RE007 growth inh – qHTS Assay for Inhibitors of the HIV-1 protein Vpr; S. pombe RE007 Vpr strain, BacTiter-Glo ATP luminescence, 24 h; control for the full effect not named in the record; Potency, µM (series often up to 92.2 µM), for inactives: top-dose activity change, negative = less growth; 360,000 tested, 0.21% active; AID 651644, 2012; active = well fitted falling curve with a large enough effect; inconclusive = small, poorly fitted or top-dose-only effect; inactive = no such curve, though single readings can be large or run the other way;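 note: % is set by controls: 0 for no effect and ±100 for the full control effect; nearly all actives have a fitted effect of over 50% in size; the assay follows cell death caused by Vpr and the record does not say whether a fall means rescue or toxicity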
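Fission yeast strain RE007, carrying one chromosomally integrated HIV-1 vpr copy, was seeded at OD 0.01 in PMG+AL medium with 23 nL pinned compound. After 24 h at 30 °C and 99% humidity, viability was read by BacTiter-Glo luminescence.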
MARV entry inh – qHTS for inhibitors of binding or entry into cells for Marburg Virus. Marburg virus pseudotyped entry inhibition, cell reporter; control for the full effect not named in the record; about a third of the inactives were read at about 46 µM. Potency, µM (highest dose often 37.8 µM), without a hit: top-dose activity change, negative = inhibition, hits mostly inhibitors. 300,000 tested, 1.8% active; active = well fitted inhibition curve with a large enough effect; inconclusive = small, poorly fitted or top-dose-only effect, or effect the other way; inactive = flat fitted curve, though single readings scatter; tested in HEK293 cells; about a fifth of its hits are not listed in these tables; note: % is set by controls: 0 for no effect and ±100 for the full control effect; luciferase read-out
LASV entry inh – qHTS for Inhibitors of binding or entry into cells for Lassa Virus; Lassa virus pseudotype entry inhibition, cell reporter; control for the full effect not named in the record; Potency, µM (doses to about 37.9 µM), for inactives: at the highest dose activity change, negative = inhibition, actives largely listed as inhibitors; 300,000 tested, 1.2% active; active means well fitted inhibition curve with a large enough effect; inconclusive means small, poorly fitted or top-dose-only effect, or effect the other way; inactive means flat fitted curve, though single readings scatter; tested in HEK293 cells; note: % is set by controls: 0 for no effect and ±100 for the full control effect; nearly all actives have a fitted effect of over 50% in size; luciferase read-out
2A StopGo – High Throughput Screening for Foot and Mouth Disease Virus Antivirals; 410,000 tested, 1.2% active; human cells with a luciferase reporter of 2A StopGo recoding; control for the full effect not named in the record; Potency, µM (highest dose often 57.9 µM), for inactives: at the highest dose signal change, negative = less light; active = well fitted falling curve with a large enough effect; inconclusive = small, poorly fitted or top-dose-only effect; inactive = no such curve, though single readings can be large or run the other way; tested in HEK293T cells; note: % is set by controls: 0 for no effect and ±100 for the full control effect; nearly all actives have a fitted effect of over 45% in size; luciferase light after 4 h
Cruzain inh Det – qHTS Assay for Promiscuous and Specific Inhibitors of Cruzain (with detergent); Cruzipain (Trypanosoma cruzi), P25779; Potency, µM, for inactives: max response, negative = inhibition, actives largely listed as inhibitors; 200,000 tested, 0.43% active; purified cruzain, Z-FR-AMC fluorescence, 0.01% Triton; active = well fitted curve in the direction sought with a large enough effect; inconclusive = small, poorly fitted or top-dose-only effect, or another doubt; inactive = no such curve, though single readings can be large; an effect the other way counts as inactive or inconclusive;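 note: plate controls were neutral wells for no effect and buffer without enzyme for full effect; nearly all actives have a fitted effect of over 40% in size; top concentration of the series not given in the record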
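Detergent-containing run (0.01% Triton X-100) in acetate buffer pH 5.5 with 5 mM DTT: enzyme at 1.5 nM final, 15 min compound preincubation at room temperature, then 2 uM Z-FR-AMC substrate. Activity taken as 60 s fluorescence increase at 360/450 nm.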
NS1 function inh – qHTS Assay for Inhibitors of Influenza NS1 Protein Function | Potency, µM (highest dose often 46.1 µM), without a hit: at the highest dose activity, positive = more growth | AID 2326, 2010 | 270,000 tested, 0.4% active | S. cerevisiae slowed by influenza A NS1, growth recovery by OD600; note: actives are rising curves; nearly all actives have a fitted effect of over 50% in size
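S. cerevisiae expressing influenza A NS1, grown in glucose, washed, then diluted 1:100 into pH 6.0 -URA galactose medium with 23 nl compound. Growth recovery read as OD600; NS1-free strain serves as control.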
* hit, by the source's call; ? = inconclusive; . = no result given; & = joins results of further samples; [ ] = another dose, or the depositor's remark. Unless noted, calls come from the whole dose curve; as a rule, active means well fitted rising curve with a large enough effect; inconclusive means small, poorly fitted or top-dose-only effect; inactive means no such curve, though single readings can be large or run the other way. Potency is the fitted concentration of half-maximal effect. Hits appear at their usual frequency; any-hit rate near 4.7%.

SMILES	SARS PLpro yeast	Cruzain noTriton	RE007 growth inh	MARV entry inh	LASV entry inh	2A StopGo	Cruzain inh Det	NS1 function inh
O=C(NCc1cccnc1)C1CC(c2ccccc2O)=NO1 (stereo not given)	2%	.	-14%	-26%	-2%	-5%	.	0%
COc1cc(OC)cc(C(=O)NNC(=O)c2ccccc2Br)c1	-11%	-9%	-1%	20%	28%	-5%	-1.6%	1%
CCCCCC/C=N/Nc1nnc(Cc2ccccc2)c(=O)[nH]1	2%	.	-3%	-2%	-3%	-3%	.	4%
O=C1CC(Cc2ccccc2)C(=O)N1c1ccc(Cl)cn1 (stereo not given)	11%	-1%	-18%	-1%[46.1 µM]	-14%	-17%	1.6%	-2%
COc1ccc2[nH]c3c(c2c1)CCN1C(=O)N([C@@H](C)C(=O)NC2CCCCC2C)C(=O)[C@]31C (stereo not given in full)	6%	.	9%	.	.	-21%	.	2%
O=S(=O)(c1ccc(NC(=S)NN=C(C2CC2)C2CC2)cc1)N1CCOCC1	0%	.	39%	.	.	-4%	.	12%
Cc1ccccc1CNC(=O)C(=O)NCC1OCCCN1S(=O)(=O)c1ccc(F)cc1C (stereo not given)	3%	.	14%	16%	-19%	-27%	.	-12%
CC(NC(=O)C1CCC(CNS(=O)(=O)c2ccc3c(c2)C(C)(C)C(=O)N3C)CC1)c1ccccc1 (stereo not given)	3%	.	-14%	.	.	?	.	-14%
N#Cc1c(NC(=O)C2CC(Cl)=CCC2C(=O)O)sc2c1CCCCC2 (stereo not given)	1%	.	4%	-10%[14.2 µM]	-4%	4%	.	11%
CC1(C)CC(=O)c2c(n(-c3cccc4ccccc34)ccc2=O)C1	-3%	0%	-17%	0%	-10%	0%	3.1%	-2%
CCCOC(=O)c1ccc(Oc2c(-c3ccc(OC)cc3O)n[nH]c2C)cc1	-43%	0%	-1%	-16%	11µM*	-1%	-2.6%	-98%
Cc1sc2ncnc(-n3cnc4ccccc43)c2c1C	18%	-7%	-4%	3%	1%	3%	3.7%	-21%
Cc1ccc(NC(=O)c2[nH]cnc2C(=O)NN)cc1	3%	.	-1%	.	.	48%[activator]	.	13%
Nc1nonc1-n1nnc(C(=O)N/N=C/c2cccnc2)c1CSC1=NCCS1	1%	.	13%	-21%[14.2 µM]	2%	?	.	6%
COc1ccccc1CO/N=C/c1cccn1-c1nccc(N(C)C)c1C#N	11%	-2%	-5%	6%	1%	0%	-2.0%	4%
Cc1cc(=O)c(C(=O)O)nn1-c1ccccc1	1%	.	-7%	?	26%	-2%	.	.
Cc1c(Cl)cccc1Nc1nc(N)nc(CSc2nc3ccccc3s2)n1	-5%	?	-4%	?	?	19%&-12%	-6.5%&-3.4%	12%
CC1(C)CC(=O)C(C=NCCN2CCN(CC(=O)Nc3ccc(F)cc3)CC2)=C(O)C1	-1%	.	-2%	4%[46.1 µM]	2%	-7%	.	2%
O=C(CCCCCN1C(=O)[C@@H]2Cc3ccccc3CN2C1=O)Nc1ccccc1F	9%	.	-3%	.	.	-22%	.	-17%
COc1ccccc1N1CCN(C(=O)C2CCN(S(=O)(=O)N3CCOCC3)CC2)CC1	1%	19%	-8%	7%&7%	0%	-15%	-3.0%	-1%
O=C(Nc1cccc(S(=O)(=O)NC2=NCCCCC2)c1)c1cc(-c2ccccc2Cl)nc2ccccc12	-1%	?	8%	?	-26%	-17%	-7.8%	?
COc1ccc(/C=N/N2CCN(C)CC2)c(OC)c1OC	1%	.	0%	6%[46.1 µM]	.	18%	.	.
O=C(CN(C(=O)CNS(=O)(=O)c1ccc(F)cc1)c1ccc(F)cc1)NCc1ccco1	1%	.	3%	-8%[46.1 µM]	-6%	8%	.	5%
O=C(Cc1nnc(NC(=O)c2ccccc2)s1)N/N=C/c1ccc(O)cc1	1%	.	-22%	.	.	10%	.	5%
NCc1ccc2[nH]c(=O)[nH]c2c1	0%	.	-16%	6%	?	-13%	.	.
CCOC(=O)c1sc2nc(N3CCOCC3)c3c(c2c1N)CCC3	0%	?	-5%	-9%	-20%	8%	-8.2%	-37%
Cc1ccc(S(=O)(=O)Nc2ccc(NC(=O)CN3CCCCC3)c(Cl)c2)cc1	-8%	-14%	12%[3.69 µM]	?	21%	-7%	2.4%	-8%
Cc1ccc(Cl)c(OCCN2CCCC(C)C2)c1 (stereo not given)	-16%	6%	.	-34%	-23%	-28%	-1.2%	-29%
CCOC(=O)c1[nH]c(C)c(CN(C(C)=O)c2ccc(OCC)cc2)c1C	0%	.	0%	?	?	-10%	.	3%
O=C(Nc1ncn[nH]1)c1cc(S(=O)(=O)Nc2ccc(Cl)cc2)ccc1Cl	24%	-7%	-9%	12%	-3%	-6%	-1.9%	9%
O=C1CC2(CCN(S(=O)(=O)c3ccccc3)CC2)Oc2ccccc21	-6%	.	3%	-34%	-20%	-25%	.	.
COc1ccc(-n2c(=S)[nH]c3cc(C(=O)Nc4ccc(C)c(F)c4)ccc3c2=O)c(OC)c1	2%	.	-12%	?	?	-17%	.	-2%
COc1ccc(C(=O)NNC(=O)Cc2coc3cc(OC)ccc23)cc1	1%	.	-3%	12%	1%	-3%	.	.
Cc1ccc(NC(=O)NCCN2CCCCC2)cc1C	2%	.	-5%	.	.	12%	.	-13%
CCOc1ccc(-c2nc(N)nc(C)c2-c2ccc(Cl)cc2)c(O)c1	7%	.	-10%	.	.	-9%	.	6%
CCOc1ccc(NC(=O)c2ccc3[nH]c(=O)c(=O)[nH]c3c2)cc1	-4%	.	-12%	.	.	-10%	.	-5%
O=C(CCc1ccccc1Cl)Nc1cc(S(=O)(=O)N2CCOCC2)ccc1N1CCCC1	.	.	-20%	-24%[46.1 µM]	2%	6%	.	.
Cc1ccc(N)cc1S(=O)(=O)N(C)C	0%	.	-3%	-20%[46.1 µM]	-22%	25%	.	3%
Cc1ccc2cc(CCNC(=O)c3ccc(C)c([N+](=O)[O-])c3)c(=O)[nH]c2c1	1%	-13%	31%	12%	3%	?	-3.4%	9%
COc1ccc(C)c2sc(N3CCN(C(=O)c4cccc(F)c4)CC3)nc12	.	-1%	.	.	-5%[46.1 µM]	-25%	-5.8%	.
C/C(=N/NC(=O)c1cnccn1)c1ccncc1	0%	.	-6%	17%[46.1 µM]	26%	22%	.	.
CC(c1ccccc1)n1c(-c2cccs2)nc2c(c(=O)c3ccccc3n2C)c1=O (stereo not given)	-2%	.	-1%	1%	5%	?	.	1%
COC(=O)[C@@]1(Cc2ccc(F)cc2)[C@H]2c3cc(C(=O)N(C)C)n(CCc4ccccn4)c3C[C@H]2CN1C(=O)c1ccccc1	11%	?	3%	-5%	-5%	-25%	-5.2%&-0.8%	-23%
Cc1c(C(=O)NC2CCC(C)CC2)oc2ccccc12 (stereo not given)	-10%	.	-11%	.	.	37%[activator]	.	-6%
Cc1ccc2nc(Nc3nc(=O)c4ccccc4n3C)nc(C)c2c1	-5%	-5%	.	.	.	.	0.1%	-3%
O=C1CN(C(=O)COC(=O)C2=COCCO2)c2ccccc2N1	-1%	0%	-6%	-29%	-1%	3%	-4.2%	7%
O=C(CCN1CCC2CCC(C2)C1)c1ccc(F)cc1 (stereo not given)	.	.	-13%	20%	.	-6%	.	.
CC#CCN(CC#CC)S(=O)(=O)c1ccc(S(=O)(=O)N2CCOCC2)cc1	-2%	?	10%	5%	?	-6%	-2.0%	-60%
O=c1c(NCc2cccs2)nccn1-c1ccccc1	.	-29%	.	.	14%[46.1 µM]	49%[activator]	-7.3%	.
CCOC(=O)c1ccc(NC(=O)Nc2ccn(C)n2)cc1	-2%	3%	1%	9%	3%	17%	4.2%	-37%
O=C(COC(=O)CCc1nc2ccccc2s1)Nc1nc(-c2ccccc2)cs1	2%	-3%	0%	10%	16%	36%[activator]	-2.1%	8%
COc1ccccc1CNC(=O)N1CCN(c2ccccc2Cl)CC1	-4%	.	14%	-22%	7%	-6%	.	9%
COCCSc1nnc(NC(=O)c2cc(OC)c(OC)cc2[N+](=O)[O-])s1	1%	.	7%	-3%	14%	-3%	.	3%
CCCc1nnc(SCC(=O)O)n1/N=C/c1ccc2c(c1)OCO2	3%	-14%	-9%	5%	5%	.	-3.4%	-1%
Cc1cc(-c2ccccc2)nc(N2CCC(C(=O)NC34CC5CC(CC(C5)C3)C4)CC2)n1	-3%	-14%	11%	3%	?	16%	-6.8%	-2%
Fc1ccc2[nH]c3c(Cl)ncnc3c2c1	0%	.	-3%	.	.	-26%	.	-34%
Cn1c(COc2ccc(Cl)cc2)nnc1SCC(=O)NC1CCCC1	1%	.	1%	24%[46.1 µM]	7%[46.1 µM]	?	.	-2%
Cc1ccc(S(=O)(=O)N2CCC(C(=O)NC3CC(C)(C)NC(C)(C)C3)CC2)cc1	0%	.	-13%	-9%[46.1 µM]	0%	0%	.	14%
CCOc1ccc(NC(=S)N(CCCN2CCCC2)Cc2cccn2Cc2ccc(Cl)cc2)cc1	0%	.	-9%	-24%[46.1 µM]	-9%	-15%	.	.
CCC(=O)N1CCc2cc(CNC(=O)Cc3ccc(OC)c(OC)c3)ccc21	.	2%	.	.	-2%[46.1 µM]	-12%	4.0%	.
COC(=O)c1c(C)oc(C)c1S(=O)(=O)NCc1ccc(OC)cc1	0%	.	-1%	.	.	20%	.	0%
COc1ccc2c(c1)-c1nc(/N=C/c3ccc(O)cc3)sc1CC2	-73%	4%	-8%	3%	?	10%	-10%	-28%
Cc1cc(SCC(=O)Nc2ccccc2)nc(C)n1	2%	-5%	14%	-3%	23%	-9%	0.7%	-6%

Screening data deposited in PubChem by National Center for Advancing Translational Sciences (NCATS).
